Screens from PubChem.
PrP UTR inh – inhibition of PrP 5' UTR reporter expression. inhibition, % (concentration not given with the values). actives 0.35% (n = 340,000). cell-based PrP 5' UTR mRNA reporter, plate reader;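 active = every replicate at 50% or more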;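 also: 0 = median of the neutral control wells; tested in H4 reporter cells; numbers are from one replicate; inactives centre near -14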
BJeLR lethal – BJeLR cell viability loss | BJeLR (HRASV12) viability, CellTiter-Glo ATP luminescence, 48 h; reference of the scale not given here | inhibition, % (no concentration beside the values) | actives 0.17% (n = 300,000);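 active = replicate mean above 50%; inconclusive = above 50% but judged a plate artefact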;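 also: 50 nL library stock added to about 25 µL; numbers are from one replicate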
Mtb hypoxia inh – reduces hypoxia-regulated biosensor signal in M. tuberculosis. M. tuberculosis hypoxia-regulated fluorescent reporter, fluorescence. actives 0.1% (n = 300,000). AID 1159583. fluorescence inhibition, % (no concentration beside the values);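 active = 35 to 45% if threefold the growth effect, above 45% if 1.5-fold the growth effect; inactive = the rest, general growth blockers included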;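 also: wells of about 50 µL received 100 nL stock; 0% = vehicle wells and 100% = reference inhibitor wells; whole bacteria with a GFP reporter of the hypoxia response; strong numbers were not always called active; many hits fall short of the cut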
Sa RN4220 lethal – kills Staphylococcus aureus RN4220; S. aureus RN4220 growth, OD600, 16 h; inhibition, % (concentration not given with the values); actives 0.33% (n = 330,000); AID 1259311;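 active = z-score of -3 or lower and OD600 up to 0.18 on both plates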;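 also: plate controls were untreated cells for no effect and reference antibiotic for full effect; stock transfer was 100 nL into about 80 µL; one replicate is shown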
ugtP null kill – compounds lethal to S. aureus RN4220 ugtP deletion mutant; OD600 growth, 16 h; some inactives read as strong as hits; growth inhibition, % (test concentration not listed); actives 0.54% (n = 330,000); AID 1259309;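 active = z-score under -3 and OD600 up to 0.15 on both plates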;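 also: plate controls were untreated wells for no effect and antibiotic for full effect; wells of about 80 µL received 100 nL stock; the first replicate is given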
Autofluor counter – flagged as autofluorescent in microsphere protease counterscreen; compound autofluorescence counterscreen, microsphere flow cytometry; hits give high values; actives 3.1% (n = 360,000); fluorescence intensity (test concentration not listed); AID 624483;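 active = at least 3 SD above the mean of all compounds, about 16000 in these data; inconclusive = too few beads counted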;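 also: 100 nL of 1 mM stock went into each well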
Mtb hypoxia inh growth – second read-out of Mtb hypoxia inh, no call of its own (marks repeat the call); growth inhibition, %; measured here: M. tuberculosis growth (absorbance);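 0% = vehicle and 100% = reference antibiotic; read after six days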
Active calls of the source: *; ? = inconclusive; / = not tested or not shown.

Every second line gives: PrP UTR inh	BJeLR lethal	Mtb hypoxia inh	Mtb hypoxia inh growth	Sa RN4220 lethal	ugtP null kill	Autofluor counter
> CN(CCOc1ccccc1)C(=O)c1ccc2c(c1)OCO2
    -17	/	16	14	5.9	5	?
> COc1ccc(F)cc1S(=O)(=O)NCC1CCCO1 (stereo unspecified)
    -27	-9	4	8	5.7	15	3861
> CCN(CC)CCCNC(=S)N1CCN(c2nc3ccccc3n2CC)CC1
    -41	5	17	6	4.0	7	4260
> Cn1c(COc2nnc(-c3ccc(Cl)cc3)c3ccccc23)nc2ccccc21
    0	13	-1	4	2.8	-2	5581
> CCC(C)(C)n1nnnc1C(c1ccc(C)cc1)N1CCSCC1 (stereo unspecified)
    -25	-6	6	-5	7.3	5	3151
> Cc1ccc(CNC(=O)C2CC(=O)OC23CCCC3)c(C)c1 (stereo unspecified)
    10	3	-8	-2	-0.3	-6	16440*
> Oc1ccccc1C=NNC(=S)NC1CC2CCC1C2 (stereo unspecified)
    /	/	10	3	1.2	-3	/
> COc1cc(OC)cc(-c2oc(=O)c3cc(OC)c(OC)cc3c2C(F)(F)F)c1
    0	/	-8	1	4.3	1	4120
> CC(C)CNc1oc(-c2ccccc2Cl)nc1C#N
    -12	-9	2	5	9.4	-8	1986
> COc1ccc(-n2nc3c(N4CCC(C(=O)NCCc5ccco5)CC4)nnc(C)c3c2C)cc1
    -3	3	0	0	1.4	8	6541
> COc1cccc(/C=C/c2ccncc2)c1OC
    -30	9	/	/	5.8	-2	4691
> COc1cccc(N2CC(C(=O)OC(C)C(=O)c3ccccc3)CC2=O)c1 (stereo unspecified)
    -4	0	-3	2	1.7	-1	22234*
> CCN1CCN(C(=O)c2cc(S(=O)(=O)N3CCCCC3)ccc2Cl)CC1
    1	6	-6	8	0.6	0	6548
> Cc1cccc(C(=O)OC(C)C(=O)NC2CCCc3ccccc32)c1O (stereo unspecified)
    -11	3	5	0	4.9	1	?
> CC(C)NC(=O)CN1C(=O)c2ccccc2S1(=O)=O
    -8	5	-8	1	-3.4	-7	3418
> C/C(=N\NC(=O)COc1ccccc1)c1ccc(O)cc1
    -77	-8	/	/	/	/	4757
> CCn1cc(CN2CCC(n3nccc3NC(=O)c3ccc(OC)cc3)CC2)cn1
    6	5	6	-3	3.8	8	4452
> Cn1c(=O)cc(OCC(=O)N2CCC3(CC2)OCCO3)c2ccccc21
    -7	8	-2	1	-1.2	-2	10010
> COc1ccc(OC)c(S(=O)(=O)N2CCCCC2C(=O)N2CCN(c3ccccn3)CC2)c1 (stereo unspecified)
    -12	1	7	5	8.1	-1	8836
> CCC(=O)N/N=C(\C)CC(=O)Nc1cccc([N+](=O)[O-])c1
    -11	-5	/	/	/	/	2023
> C1CCc2nnc(C3CC3)n2CC1
    -13	-4	0	-2	4.9	-4	3274
> CCOC(=O)C(=O)c1c(-c2ccccc2)nc2ccccn12
    -13	-5	9	5	1.4	3	4135
> CN1CCN(c2ccc(NC(=O)c3ccc(C(F)(F)F)cc3)cn2)CC1
    -15	0	2	3	-0.8	-1	3220
> CC(=O)Nc1ccc(S(=O)(=O)N[C@@H](C)C(=O)NC2CCCc3ccccc32)cc1 (stereo partly specified)
    -25	/	0	5	9.0	10	4161
> Cc1ccccc1N1CCN(Cc2c[nH]c3ccccc23)CC1
    9	0	15	34	0.4	-16	12844
> Oc1ccc2c3c1OC1c4oc5ccccc5c4C[C@@]4(O)C(C2)N(CC2CC2)CC[C@]314 (stereo partly specified)
    /	/	0	-2	4.1	4	/
> COc1ccc(CN=C(NS(=O)(=O)c2cccs2)SC)cc1
    -8	-4	0	-1	2.9	4	2146
> O=C(Cc1ccccc1[N+](=O)[O-])NCc1ccc(Cl)cc1
    -39	0	4	6	5.3	7	2774
> Cc1ccc(-c2nc(C3CCCN(S(=O)(=O)c4ccc(C)cc4)C3)no2)cc1 (stereo unspecified)
    -30	-2	-1	-1	-3.4	-4	5475
> O=C(CCc1ccc(S(=O)(=O)NCc2ccccc2)cc1)NCc1ccco1
    -18	-2	8	4	8.7	5	8952
> CN(C)C(=O)c1ccc(=O)n(Cc2ccc(Cl)cc2Cl)c1
    -19	6	18	12	-1.8	5	4005
> FC(F)(F)c1cccc(NC(=S)N2CCCCCC2)c1
    -23	-8	-1	12	2.3	1	4305
> O=C(Nc1cccc(-n2cccn2)c1)C1CCCN(Cc2cccc(F)c2F)C1 (stereo unspecified)
    -7	19	-9	6	-4.3	-11	5711
> CCOC(=O)N1CCC2(CC1)C(C#N)=C(N)OC1=C2C(=O)CC(C)(C)C1
    -15	3	-2	8	5.1	-2	2428
> CCN(CC)c1ccc(NC(=O)COc2ccc(-n3cnnn3)cc2)cc1
    -17	/	14	6	1.1	5	2969
> Nc1c(C(=O)NCc2ccco2)nnn1Cc1ccccc1
    -3	4	8	6	3.1	8	4279
> CCOC(=O)C1=C(CS(=O)(=O)c2ccccc2)NC(=O)NC1c1ccccc1OCC (stereo unspecified)
    -24	-1	3	-1	5.3	12	6212
> O=S(=O)(NCCCN1CCOCC1)c1ccc(Cl)cc1
    2	-2	-2	-5	3.9	2	6852
> O=C(Nc1nc2ccccc2c2nc3ccccc3n12)c1ccc(F)cc1
    /	3	3	-1	0.1	-14	/
> CCC(C)(C(=O)NC1CCCC1)N(C(C)=O)c1ccc(C)cc1 (stereo unspecified)
    -14	4	23	14	1.3	5	3153
> Cc1ccnc(NC(=O)Nc2cccc(F)c2)c1
    -19	4	11	4	3.5	2	9427
> O=C(O)C1(c2ccccc2)CCN(S(=O)(=O)c2ccc(Cl)s2)CC1
    -31	-4	-4	8	4.9	7	4857
> CCCc1c(O)nc(SC2CC(=O)N(c3ccc(C)c(Cl)c3)C2=O)[nH]c1=O (stereo unspecified)
    /	-2	4	5	4.7	14	5432
> CCOC(=O)C1=C(c2ccccc2)N=c2s/c(=C\c3ccc(O)cc3)c(=O)n2C1c1cccs1 (stereo unspecified)
    -18	-1	/	/	/	/	10458
> O=C(CN1CCCC(O)C1)N1c2ccccc2Sc2ccc(C(F)(F)F)cc21 (stereo unspecified)
    -24	-1	/	/	5.7	9	2452
> Brc1ccc(CSc2nccn2-c2ccccc2)cc1
    -11	1	/	/	8.1	24	3491
> Cc1ccc(NC(=O)CN2CCN(Cc3ccccc3)CC2)cc1Cl
    -32	3	-7	11	-0.1	1	4330
> COc1ccc(NC(=O)CSc2nnc(CNC(=O)c3ccco3)n2-c2ccccc2OC)cc1
    -8	/	/	/	1.2	1	4735
> CCc1ccc(NC(=O)N(CCOC)C2CCN(C(C)=O)CC2)cc1
    -6	-9	15	-1	4.9	10	15449
> Cc1ccc(CNC(=O)C(OC(=O)c2cccs2)C(C)C)cc1 (stereo unspecified)
    -16	0	6	0	0.8	20	2921
> CCOCCCNC(=O)C1CC(=O)N(CCc2ccccc2)C1 (stereo unspecified)
    -4	8	9	7	2.9	0	3961
> C=CCn1c(SCc2ccc(C(=O)OC)cc2)nnc1-c1sc(N)nc1C
    -15	3	5	5	2.8	5	2422
> Cc1csc2ncc(C(=O)Nc3ccc4c(c3)OCCO4)c(=O)n12
    -129	8	-1	1	1.1	12	5826
> CCOC(=O)c1ccc(NC(=O)c2nc[nH]c2C(=O)NC(Cc2ccccc2)C(=O)OC(C)(C)C)cc1 (stereo unspecified)
    /	/	3	8	-3.8	-23	/
> CCN(CC(=O)Nc1c(F)cccc1F)C(=O)CNC(=O)c1sc2ccccc2c1Cl
    -22	/	8	7	7.4	12	?
> CC1CCC/C(=C\c2ccccc2)C1=NO (stereo unspecified)
    /	/	6	9	11	-8	/
> c1ccc(COc2ccc(CNn3cnnc3)cc2)cc1
    -33	2	7	-2	7.7	5	9411
> COc1ccc(-n2nc(C(=O)NCC(=O)N3CCC4(CC3)OCCO4)c3ccccc3c2=O)cc1Cl
    -26	3	16	9	0.7	-2	5969
> C#CCNC(=O)C1=C[C@H](C)C[C@H](OCc2ccc(CO)cc2)O1
    -15	-1	/	/	/	/	3658
> Cc1cccc(N(C)Cc2nnc(-c3cccc(Br)c3)o2)c1
    -18	6	11	4	3.8	6	3593

Following part
Every second line gives: PrP UTR inh	BJeLR lethal	Mtb hypoxia inh	Mtb hypoxia inh growth	Sa RN4220 lethal	ugtP null kill	Autofluor counter
> O=C(CSc1ccc2c(c1)OCCO2)NCc1ccccc1
    36	4	-8	1	-2.4	-12	4370
> CCN(CC)CCNc1cc(C)c(C#N)c2nc3ccccc3n12
    -12	5	/	/	/	/	4185
> O=C(c1cnccn1)N1CCN(S(=O)(=O)c2ccc3ccccc3c2)CC1
    -4	0	5	6	6.6	4	3276
> CC=CC=CC(=O)N1CC2(CC(c3cccc(NC(=O)C=CC)c3)=NO2)CC1C(N)=O (stereo unspecified)
    /	/	2	2	3.8	-6	/
> C=CCn1c(=O)c2ccc(C(=O)NCc3ccccc3)cc2n(Cc2ccccc2Cl)c1=O
    -15	1	/	/	/	/	2010
> Cc1ccccc1NC(=O)Cn1nnc(-c2ccc(CN3CCC(C)CC3)cc2)n1
    -12	7	3	1	4.6	3	3626
> CCc1nn(C(C)C(=O)NC2CCCCCC2)c(=O)c2cc3occc3n12 (stereo unspecified)
    -9	3	9	3	2.4	-1	5242
> Cc1cc(C)cc(NC(=O)C(Sc2nnc(C)c(=O)[nH]2)c2ccccc2)c1 (stereo unspecified)
    -21	-23	-2	0	2.0	-8	5036
> C/C(=N\NC(=O)CCc1ccccc1)C1C(=O)c2ccccc2C1=O
    -25	-23	/	/	/	/	4541
> COc1ccccc1NS(=O)(=O)c1cccc(NC(=S)NCCN2CCOCC2)c1
    -7	8	-12	-14	4.5	-3	2564
> CC(C)N(C(=O)CSc1nnc(NC(=O)c2ccco2)s1)C(C)C
    -52	-1	-3	-4	5.3	9	4320
> O=C(NCc1ccc(Cl)cc1)C(=O)NCC1CCCN1S(=O)(=O)c1cccs1 (stereo unspecified)
    -20	5	1	9	2.3	4	6907
> CCN(CC)S(=O)(=O)c1ccc2c(c1)c(=O)c(C(=O)N1CCN(c3ccccc3)CC1)cn2C
    -1	-1	0	2	8.6	12	?
> OCCNCCc1c[nH]c2ccc(OCc3ccccc3)cc12
    -9	-19	11	14	-5.8	5	3741
> NC(=NO)c1ccccc1N1CCC(Cc2ccccc2)CC1
    /	/	7	5	-1.4	-1	/
> O=C(Nc1ccccc1F)c1cc(S(=O)(=O)N2CCCCC2)cs1
    -21	1	6	12	-1.9	7	10381
> COc1ccc(CCNC(=O)C2CCN(S(=O)(=O)c3ccc(OC)cc3)CC2)cc1
    -23	3	-8	-1	4.5	8	4046
> CCN(CC)CCN1C(=O)c2ccccc2NC1c1cccc(F)c1 (stereo unspecified)
    -23	-8	-13	11	0.9	-4	4538
> O=C1c2ccccc2CCc2ccc(Br)cc21
    -14	/	6	7	8.3	9	3932
> O=C(CC(Sc1ccccc1)c1cccs1)c1ccco1 (stereo unspecified)
    -19	-2	10	2	-1.3	11	10537
> CCc1cc2c(=O)c(-c3cnn(-c4ccccc4)c3)c(C)oc2cc1OCC(=O)Nc1cccc(C)c1
    -5	6	13	3	-1.2	-1	2134
> O=S1(=O)N[C@@H](Cc2ccccc2)COc2cc(Br)ccc21
    -6	/	-2	4	1.6	13	3612
> O=C(c1ccco1)N1CCN(C(=O)c2cc(-c3ccncc3)nc3ccc(Br)cc23)CC1
    -14	-1	/	/	-0.5	-1	2659
> CCN1CCN(c2ccc(NC(=O)c3ccc([N+](=O)[O-])o3)cc2Cl)CC1
    -24	5	11	18	100*	99*	4400
> CCOC(=O)Cn1nc(-c2ccccc2)c2cnc3ccc(C)cc3c21
    -15	11	1	9	6.2	-5	6641

Entries from the list above containing a CF3 group:
Every second line gives: PrP UTR inh	BJeLR lethal	Mtb hypoxia inh	Mtb hypoxia inh growth	Sa RN4220 lethal	ugtP null kill	Autofluor counter
> COc1cc(OC)cc(-c2oc(=O)c3cc(OC)c(OC)cc3c2C(F)(F)F)c1
    0	/	-8	1	4.3	1	4120
> CN1CCN(c2ccc(NC(=O)c3ccc(C(F)(F)F)cc3)cn2)CC1
    -15	0	2	3	-0.8	-1	3220
> FC(F)(F)c1cccc(NC(=S)N2CCCCCC2)c1
    -23	-8	-1	12	2.3	1	4305
> O=C(CN1CCCC(O)C1)N1c2ccccc2Sc2ccc(C(F)(F)F)cc21 (stereo unspecified)
    -24	-1	/	/	5.7	9	2452
